ClpP mod: qHTS Assay for Activators of ClpP; purified B. subtilis ClpP, FRET peptide cleavage, 20 min; AID 651965, 2013; ATP-dependent Clp protease proteolytic subunit (Bacillus subtilis (strain 168)), P80244; Potency, µM (top dose mostly 57.5 µM), without a hit: at the top dose activity change, negative = active; actives 1.9% (n = 340,000); active = well fitted falling curve with a large enough effect; inconclusive = small, poorly fitted or top-dose-only effect; inactive = no such curve, though single readings can be large or run the other way; note: potency is the fitted concentration of half-maximal effect; the source files actives as falling curves though it sought activators and does not explain the sign; nearly all actives have a fitted effect of over 65% in size; many hits overshoot -100%
Target sequence (P80244 whole entry, looked up): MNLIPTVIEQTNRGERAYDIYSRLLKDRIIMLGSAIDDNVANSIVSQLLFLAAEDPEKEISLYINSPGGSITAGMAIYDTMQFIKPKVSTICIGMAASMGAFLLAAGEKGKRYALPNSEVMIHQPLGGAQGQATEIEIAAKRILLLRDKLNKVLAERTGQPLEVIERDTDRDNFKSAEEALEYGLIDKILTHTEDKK
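ClpP 10 microg/mL final, pH 8 Tris/KCl buffer with BSA, glycerol, Tween-20; compound pinned in; FRET-FV substrate; RT 20 min; Ex320/Em430; ΔFRET vs ADEP 5.8 microM, DMSO, no enzyme.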
TRPML1 blocker: inhibitors of human TRPML1 channel; Q9GZU1; TRPML1-inducible cells, Ca2+ dye fluorescence, FDSS; active compounds read low; inhibition of EC80 agonist-evoked calcium signal; activity change, negative = inhibition, % (test concentration not listed); actives 0.02% (n = 390,000); in the data active means activity change below about -50%; inconclusive means about -30% to -50%; inactive means above about -30%;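 note: stimulus is agonist 54-4 at its EC80 concentration; % is set by controls: 0 for no effect and ±100 for the full control effect; compound concentration not given in the record; the text of the record puts the active cut at -80%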
Target sequence (Q9GZU1 whole entry, looked up): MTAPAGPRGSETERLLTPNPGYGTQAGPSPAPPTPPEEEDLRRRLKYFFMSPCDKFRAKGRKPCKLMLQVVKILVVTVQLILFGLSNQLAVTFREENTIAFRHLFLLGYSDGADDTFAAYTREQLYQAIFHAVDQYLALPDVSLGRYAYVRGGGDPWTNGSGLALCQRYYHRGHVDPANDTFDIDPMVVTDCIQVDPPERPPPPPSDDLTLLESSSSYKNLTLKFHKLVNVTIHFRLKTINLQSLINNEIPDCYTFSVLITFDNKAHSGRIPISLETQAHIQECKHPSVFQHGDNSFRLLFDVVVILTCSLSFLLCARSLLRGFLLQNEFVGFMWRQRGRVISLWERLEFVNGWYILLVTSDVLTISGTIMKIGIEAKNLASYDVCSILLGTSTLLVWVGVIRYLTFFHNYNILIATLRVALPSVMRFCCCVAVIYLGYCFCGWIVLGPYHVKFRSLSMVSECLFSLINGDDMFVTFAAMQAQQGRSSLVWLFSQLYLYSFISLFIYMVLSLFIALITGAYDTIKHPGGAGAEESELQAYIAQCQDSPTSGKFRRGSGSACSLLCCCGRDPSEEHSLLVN
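TRPML1-DL cells, Tet-induced overnight (~16 h, 37 °C) at 1,500 cells/well, were loaded with Ca8 no-wash dye plus quencher for 45-90 min at room temperature. Compounds were pinned during FDSS kinetic reading; agonist 54-4 at EC80 (4 uM final) then added.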
Sfp PPTase inh: Sfp phosphopantetheinyl transferase inhibition | Q9F4F7 | Biochemical Sfp PPTase activity, qHTS | Potency, µM, inactives show max response, negative = inhibition, most hits filed as inhibitors | actives 3.5% (n = 310,000); active = well fitted inhibition curve with a large enough effect; inconclusive = small, poorly fitted or top-dose-only effect, or another doubt; inactive = no such curve, though single readings can be large or run the other way;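 note: the enzyme is Sfp with the accession as filed and its product quenches rhodamine fluorescence; potency is the fitted concentration of half-maximal effect; 0% = enzyme reaction without inhibitor and -100% = no enzyme wells; top concentration of the series not given in the record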
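Fluorescence-quenching assay: 15 nM Sfp-PPTase preincubated 15 min at room temperature with compound, then 5 uM rhodamine-CoA and 12.5 uM BHQ-2-labelled YbbR peptide added. Fluorescence (ex 525/em 598 nm) read at start and after 30 min; difference gives rate.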
TRPML1 agonist: agonists of human TRPML1 channel; activation, % (no concentration beside the values); TRPML1-expressing cells, Ca2+ dye fluorescence, FDSS; host cell line not named in the record; reference of the full effect not given here; AID 624414; actives 0.12% (n = 410,000); in the data active = activation above about 50%; inconclusive = about 30% to 50%; inactive = below about 30%; note: 0% is about no effect; the text of the record puts the active cut at 80%
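Tet-induced TRPML1-DL cells, 1,500 per well, cultured overnight, were loaded with a no-wash Ca2+ dye for 45–90 min. Calcium fluorescence was recorded on the FDSS for 110 s after compound addition, before the EC80 agonist (4 uM 54-4) was added.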
PINK1 modulator: modulators of PINK1 expression; PINK1 immunofluorescence, high-content cytometry, 24 h; actives 0.2% (n = 410,000); Potency, µM (series often up to 76.6 µM), for the others: at the top dose activation (PINK1 increase), most hits filed as activators; active = well fitted activation curve with a large enough effect; inconclusive = small, poorly fitted or top-dose-only effect; inactive = flat fitted curve, though single readings scatter; cell line not stated here;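 note: potency is the fitted concentration of half-maximal effect; % of control where 0% means no effect; nearly all actives have a fitted effect of over 65% in size; a mitochondrial uncoupler was the plate control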
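Stable cell line, 250 cells/well, 12 h attachment; compounds pinned at 5 concentrations, 24 h; CCCP control. Fixed with nuclear dye, primary antibodies 12 h at 10 degrees C, secondary plus cell stain; laser-scanning cytometer read.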
Menin MLL FP FL: menin-MLL binding inhibition, fluorescein peptide | Fluorescence polarization, fluorescein-MLL peptide displacement from menin | FP activity change, % at 61.4 µM | 290,000 tested, under 10 active | AID 1766; inconclusive = falling polarisation curve, or a change in total fluorescence; inactive = total fluorescence flat and polarisation flat or rising; no compound was filed as active; the % refers to the polarisation; negative = inhibition;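 note: % of control where 0% means no effect; inhibitors lower the polarisation; unlabelled MLL peptide was the positive control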
TRPV1 potentiator: enhances activation of the human vanilloid receptor TRPV1; Q8NER1; TRPV1-expressing cells, Fluo-8 calcium influx, capsaicin EC20 potentiation; host cell line not named in the record; control for the full effect not named in the record; potentiation, % at 8.33 µM; actives 0.02% (n = 320,000); active means potentiation above 80%; inconclusive means 30% to 80%; inactive means below 30%; note: 0% is about no effect
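Cells expressing TRPV1 were dye-loaded with Fluo-8 and read kinetically: 10 s baseline, 3 min after compound (agonist portion), then 2 min after EC20 capsaicin (allosteric enhancer portion). Calcium-bound dye fluorescence at 480/520 nm.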
An asterisk follows results filed as active; ? = inconclusive; · = no result given; [ ] = another dose, or the depositor's remark.

SMILES	ClpP mod	TRPML1 blocker	Sfp PPTase inh	TRPML1 agonist	PINK1 modulator	Menin MLL FP FL	TRPV1 potentiator
Cc1sc2ncnc(N3CCC(C(=O)NNC(=O)c4ccc(Cl)cc4)CC3)c2c1C	13µM*	18	·	-0.1	-0.7%	·	5
CC(C)n1c(=S)[nH]c2ccccc21	2.9%	-4	79µM*	-0.8	-0.6%	1.0	11
CCCn1nc(NS(=O)(=O)c2ccccc2)c2cc3ccccc3nc21	-1.5%	8	29%	-0.4	-3.4%	2.6	26
CC1(C)Cc2ccccc2C(=C(C#N)C#N)N1	1.7%	21	8%	0.3	1.1%	2.0	-3
O=C(Nc1nccs1)c1ccc(Cl)nc1	-1.9%	0	16%	2.7	-1.6%	2.3	8
COc1ccc(NC(=O)Cn2c(=O)n(CCCC(=O)NCCc3ccc(C)cc3)c(=O)c3ccccc32)cc1Cl	-2.1%	13	·	-0.4	0.5%	·	·
COc1cc(NC(=O)c2cc3cccc(OC)c3o2)cc(C(=O)Nc2cccc(C(F)(F)F)c2)c1	25µM*	20	12%	1.3	0.3%	4.0	-20
Cc1onc(-c2ccccc2)c1C(=O)NNC(=O)c1ccccc1Br	-1.7%	3	·	-0.8	-0.1%	·	14
COC(=O)c1cc(S(=O)(=O)NCc2ccccc2OC)cn1C	-2.0%	5	13%	0.0	-0.6%	1.4	-3
COc1ccccc1OCc1nnc(SCC(=O)N2CCCCC2)n1-c1ccccc1	0.5%	32	15%	0.1	-0.2%	3.0	16
COc1cc(-c2nnc(COC(=O)CSc3cc(C)c4ccccc4n3)o2)cc(OC)c1OC	8.0%	-8	4%	-0.7	-4.0%	0.0	-4
O=C1OC(c2ccc3ccccc3c2O)(c2ccc3ccccc3c2O)c2ccccc21	·	13	·	-0.1	7.9%	·	·
Cn1cc(CN2C[C@]3(C)C[C@H]2CC(C)(C)C3)c(-c2ccc3c(c2)OCCO3)n1	·	-7	2%	1.5	-4.9%	0.1	-19
Cc1ccccc1OCC(=O)Nc1ccc(N2CCN(C(=O)c3ccco3)CC2)cc1	-11%	-7	-12%	0.9	1.2%	-1.2	4
CCCCNC(=O)[C@H](Cc1c[nH]c2ccccc12)NC(=O)c1ccccc1Cl	-1.7%	-22	-9%	-1.3	0.0%	-1.8	11
COC(=O)c1sccc1-n1cc(C#N)c(=O)n(C)c1=O	1.2%	16	7%	0.8	0.9%	1.8	?
CCOC(=O)c1cc(CC)sc1NC(=O)c1ccc(N2CCOCC2)c([N+](=O)[O-])c1	-0.2%	-11	-3%	0.2	?	2.9	0
O=C(CCn1c(=S)[nH]c2ccccc2c1=O)NCC1CCCO1 (configuration not stated)	1.4%	1	-15%	-0.1	-3.0%[38.3 µM]	-0.1	?
COc1ccccc1N(C)S(=O)(=O)c1ccc(C(=O)NCC(C)C)cc1	-0.8%	-15	7%	-0.5	3.9%[38.3 µM]	3.1	0
COCCC(=O)N1CCC(Oc2ccc(C(=O)NCCCC3CCCC3)cc2)CC1	32µM*	-5	9%	0.3	1.7%	·	-27
COc1ccc(CCNC(=O)C/C(C)=N/NC(=O)Cc2cccc3ccccc23)cc1OC	-1.4%	12	5%	-0.7	-0.4%	-2.5	3
CCOC(=O)c1c(NC(C)=O)c2c3c(sc2n1Cc1nc(-c2ccccc2OCC)oc1C)CCCC3	-2.5%	-3	·	0.3	2.8%	·	·
O=C(CCN1C(=O)c2ccncc2C1=O)Nc1cc(F)ccc1F	-0.8%	-10	19%	1.7	-0.6%	1.3	-11
Cc1ncc(CN2CCCC(C(=O)Nc3ccc(-c4cccc(F)c4)cc3)C2)n1C (configuration not stated)	-2.7%	-8	11%	2.9	-2.0%	·	5
Nc1nc2ccc(C(=O)N3CCCCC3)cc2s1	·	18	-30%	-0.4	3.6%	·	-3
Cc1c(C)n(Cc2ccccc2)c2ncnc(NN)c12	-13%	-12	56µM*	1.4	5.6%	2.0	-18
O=C(CN1CCCC1)Nc1cccc(Cl)c1Cl	0.2%	·	16%	·	3.5%	-1.2	18
CCOC(=O)C1=CCN(S(=O)(=O)c2ccccc2Br)C1c1cccc(Cl)c1 (configuration not stated)	0.2%	-18	·	17	-0.1%	·	·
COCC(=O)N(Cc1ccco1)c1nnc(C2CCOC2)s1 (configuration not stated)	-1.8%	-16	1%	-0.1	-0.8%	0.9	-4
CC(C)(C)OC(=O)N[C@@H](C(=O)OC(C)(C)C)c1ccc2ccccc2c1	-1.3%	-3	·	-0.9	-0.5%	·	-22

Structural class, the entries above with a cyano group
SMILES	ClpP mod	TRPML1 blocker	Sfp PPTase inh	TRPML1 agonist	PINK1 modulator	Menin MLL FP FL	TRPV1 potentiator
CC1(C)Cc2ccccc2C(=C(C#N)C#N)N1	1.7%	21	8%	0.3	1.1%	2.0	-3
COC(=O)c1sccc1-n1cc(C#N)c(=O)n(C)c1=O	1.2%	16	7%	0.8	0.9%	1.8	?

(next part)
SMILES	ClpP mod	TRPML1 blocker	Sfp PPTase inh	TRPML1 agonist	PINK1 modulator	Menin MLL FP FL	TRPV1 potentiator
O=C(NC1=NCCS1)C12CC3CC(CC(C3)C1)C2	·	16	11%	-0.1	2.1%	0.6	-6
CCNC(=S)N/N=C(\C)c1cccc(C(F)(F)F)c1	·	4	2%	0.3	2.5%	-4.1	-8
COc1ccc(OCc2nnc3n2N=C(c2ccc(Br)cc2)CS3)cc1	-1.1%	22	-20%	1.9	1.3%	-1.9	·
Cc1ccc(OCC(=O)Nc2ccc(-c3nc4ccc(C)cc4o3)cc2)cc1	?	-18	·	0.7	0.9%	·	7
CN1CCN(C(=O)Cn2ncc3c4ccccc4n(Cc4ccc(Cl)cc4)c3c2=O)CC1	-25%	-1	·	0.0	-1.5%	·	·
CCCc1nc(SCC(=O)Nc2cc(C)on2)c2ccccc2n1	-0.4%	-2	18%	0.4	4.5%	1.0	-9
CN(CC(=O)Nc1cccc(F)c1)C(=O)c1ccc2c(c1)S(=O)(=O)N=C1CCCCCN12	-0.9%	26	·	-0.7	0.5%	·	11
O=C(CNC(=O)c1cccs1)N=Nc1c(O)[nH]c2ccc([N+](=O)[O-])cc12	0.2%	-7	?	0.2	0.2%	-0.8	0
O=C(Cn1ncc2c3ccccc3n(Cc3ccccc3)c2c1=O)NCCCN1CCOCC1	-25%	-7	11%	-0.7	-1.9%	1.1	0
O=C(CSc1oc(-c2cccs2)nc1S(=O)(=O)c1ccc(F)cc1)NCC1CCCO1 (configuration not stated)	-20%	-2	-16%	-0.6	1.5%	8.6	·

Structures listed so far with a nitro group on carbon, in the order listed:
SMILES	ClpP mod	TRPML1 blocker	Sfp PPTase inh	TRPML1 agonist	PINK1 modulator	Menin MLL FP FL	TRPV1 potentiator
CCOC(=O)c1cc(CC)sc1NC(=O)c1ccc(N2CCOCC2)c([N+](=O)[O-])c1	-0.2%	-11	-3%	0.2	?	2.9	0
O=C(CNC(=O)c1cccs1)N=Nc1c(O)[nH]c2ccc([N+](=O)[O-])cc12	0.2%	-7	?	0.2	0.2%	-0.8	0

(more compounds)
SMILES	ClpP mod	TRPML1 blocker	Sfp PPTase inh	TRPML1 agonist	PINK1 modulator	Menin MLL FP FL	TRPV1 potentiator
CCCCC[C@H](O)/C=C/[C@H]1CCC(=O)[C@@H]1CCCCCCC(=O)N1CCCCC1CO (some centres not stated)	·	-14	6%	0.8	-1.1%	?	-18
Cc1ccc([C@@H]2CC(=O)[C@@H]3CN(S(=O)(=O)c4ccc(C)cc4)[C@H](c4ccccc4)C[C@@H]3N2S(=O)(=O)c2ccc(Cl)cc2)cc1	0.1%	0	·	0.3	3.1%	·	·
CCOC(=O)[C@H]1[C@H]2COc3ccc(Br)cc3[C@H]2N2C(=O)CN(CCc3c[nH]c4ccccc34)C(=O)[C@@]12C	-3.0%	-3	·	-0.4	0.8%	·	·
COc1ccc(CC(=O)NNS(=O)(=O)c2ccccc2[N+](=O)[O-])cc1OC	-10%	4	4%	-1.1	3.4%	-1.8	-2
Cc1ccccc1-n1nc2c(c1NC(=O)C1CC1)CS(=O)(=O)C2	0.1%	-4	·	-0.9	1.8%	·	·
O=C(/C=C/Nc1ccc(F)c(F)c1)c1ccc(Br)cc1	-0.2%	-16	-4%	-0.3	2.0%	6.8	2
C/C(=N\NC(=O)c1ccc(NS(=O)(=O)c2cccs2)cc1)c1ccc(C(C)(C)C)cc1	·	-18	-3%	3.7	4.3%	4.7	6
COCc1cc(=O)[nH]c(Cc2c(Cl)cccc2Cl)n1	0.8%	-15	19%	-0.2	7.0%	4.4	7
C[C@H](CO)N1C[C@H](C)[C@H](CN(C)C(=O)Nc2cccc(Oc3ccccn3)c2)OCc2cnnn2CCCC1=O	0.3%	3	·	-0.5	1.7%	·	·
COc1ccc2c(c1)c1c(c(=O)n(Cc3ccccc3)c(=O)n1CC(=O)Nc1ccc(C)cc1C)n2C	-5.9%	14	·	0.7	-0.4%	·	·
COc1ccc(-c2ccc(-c3noc(-c4ccccc4)n3)c(OC)n2)cc1	84%	-8	-1%	0.3	?	-0.4	?
Cc1ccccc1Cn1c(=N)n(CC(=O)c2ccco2)c2ccccc21	-1.3%	5	3%	0.1	-2.4%	5.8	2
CC[C@@H](C)[C@H](CNC)NC[C@@H](Cc1cccc2ccccc12)NCCc1cccc(C(F)(F)F)c1	-4.6%	18	79µM*	0.3	-1.5%	1.2	-2
CCCc1nnc(NC(=O)c2cc(=O)c3ccccc3o2)s1	2.4%	-11	·	-0.9	-1.8%	·	·
C/C(=N\Nc1ccc(S(N)(=O)=O)cc1[N+](=O)[O-])c1cccnc1	·	-9	14%	-0.3	1.3%	-0.1	-1
O=C(NCCCN1CCCC1=O)c1ccc(S(=O)(=O)Nc2ccccc2F)cc1	-4.1%	10	·	0.1	-2.1%	·	7
C[C@H](NC(=O)c1nc[nH]c1C(=O)N[C@@H](Cc1ccccc1)C(=O)OC(C)(C)C)C(=O)OCc1ccccc1	0.4%	-16	33%[activator]	2.0	13%	-1.2	-9
CC(NC(=O)C(C)N1c2cccc3cccc(c23)S1(=O)=O)c1ccccc1 (configuration not stated)	·	24	2%	3.5	1.9%	-5.9	10
COc1ccccc1-n1c(SCC(=O)Nc2cc(C)on2)nc2c([nH]c3ccccc32)c1=O	-9.8%	-5	25%	-0.3	-0.3%	·	1
